# Screens as filed in PubChem BioAssay.
# Ecoli growth: E. coli growth inhibition, primary screen, OD600. Escherichia coli growth, 23 h; active compounds read low. OD600 absorbance (test concentration not listed). hit rate 0.21% among 330,000. AID 1053175, 2014;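 active = OD600 absorbance below the run mean of sample wells minus 3.6 SD, in any replicate, cut at about 0.56 in these data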;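 also: stock transfer was 300 nL into about 60 µL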
# HNF4A DNA FP: change in binding of human HNF4A to DNA, primary screen, biochemical, fluorescence polarization, FITC-DNA. AID 1224865, 2016. hit rate 0.3% among 360,000. activity change, % at 10 µM. 1 h; in the data active = activity change above about 30%, passing the limit was not always enough;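 also: controls were the assay level and a saturating level of protein; the project sought stronger binding though the title names inhibitors; some compounds called inactive have numbers as strong as hits; positive values seem to mean higher polarization but the record does not say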
# Target sequence (P41235 whole entry, looked up): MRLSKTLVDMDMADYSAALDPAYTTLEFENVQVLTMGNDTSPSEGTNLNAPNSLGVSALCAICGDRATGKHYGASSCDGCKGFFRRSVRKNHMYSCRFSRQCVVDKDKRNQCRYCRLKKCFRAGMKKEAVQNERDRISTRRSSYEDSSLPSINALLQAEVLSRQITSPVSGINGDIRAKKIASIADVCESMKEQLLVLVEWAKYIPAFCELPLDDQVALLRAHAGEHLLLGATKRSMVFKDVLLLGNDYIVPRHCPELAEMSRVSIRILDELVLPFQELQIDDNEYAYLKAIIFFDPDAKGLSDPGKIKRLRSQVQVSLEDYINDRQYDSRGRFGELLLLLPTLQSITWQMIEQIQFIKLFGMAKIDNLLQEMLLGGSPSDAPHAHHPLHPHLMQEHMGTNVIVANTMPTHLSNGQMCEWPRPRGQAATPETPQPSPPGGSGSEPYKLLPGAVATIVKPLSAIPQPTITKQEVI
# Ecoli rRNA inh: reduced GFP signal of wild-type E. coli, primary screen, bacterial rRNA inhibitor project, GFP/RFP fluorescence, OD600, single point; AID 720706, 2013; E. coli WT GFP vs humanized-ribosome RFP mutants, 24 h; active compounds read low; DMSO median 0, no signal -100; GFP signal change (wild-type ribosome), % (no concentration beside the values); hit rate 1.6% among 350,000;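 active = significant combined selectivity score with lowered wild-type GFP, culture density cut under 30%, mutant RFP and density less affected; inactive = any of these conditions unmet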; also: one replicate is shown; some compounds called inactive have numbers as strong as hits
# Vif A3G: inhibitors of Vif binding to APOBEC3G peptide, primary screen, biochemical, TR-FRET, GST-Vif 1-94, biotin-A3G peptide, dose response retest (AID 1117319); TR-FRET GST-Vif / biotin-A3G peptide binding; higher % means a stronger effect; test concentration not given here; strong numbers were not always called active; inhibition, %, or IC50 in µM where a hit was titrated; hit rate 0.57% among 260,000;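 active = above the screen mean plus three standard deviations and confirmed in dose response; inconclusive = results disagree or hit not tested in dose response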;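 also: Vif residues 1-94 fused to GST binding biotinylated APOBEC3G peptide 110-148; 0% = full assay without inhibitor and 100% = GST in place of GST-Vif; retest series ran down from 100 µM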
# ALR H2O2 inh: inhibitors of human ALR sulfhydryl oxidase, primary screen, biochemical, H2O2 detection, HRP-luminol luminescence, single point | purified ALR, DTT oxidation | hit rate 3.8% among 290,000 | inhibition, % (test concentration not listed);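 active = mean and each replicate at 75% or more; inconclusive = only one of the two met; inactive = neither met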;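 also: stock transfer was 7.5 nL into about 7.5 µL; 0% = neutral wells and 100% = wells with inactivated enzyme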
# Target sequence (P55789 whole entry, looked up): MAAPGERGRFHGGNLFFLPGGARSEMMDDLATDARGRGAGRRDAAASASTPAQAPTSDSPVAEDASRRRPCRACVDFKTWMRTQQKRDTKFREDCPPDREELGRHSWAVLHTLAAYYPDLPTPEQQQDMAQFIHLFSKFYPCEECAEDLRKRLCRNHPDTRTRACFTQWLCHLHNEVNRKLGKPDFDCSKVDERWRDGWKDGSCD
# MLL AF4-AF9 inh: inhibitors of AF4 peptide binding to AF9, primary screen, biochemical, AlphaScreen, biotin-AF4 peptide, FLAG-AF9, single point; Protein AF-9 (Homo sapiens), P42568; hit rate 0.47% among 350,000; inhibition, % at 10 µM; AID 651704, 2012;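 active = every replicate reaching a set inhibition limit, whatever the replicate mean, cut at about 25% in these data; inconclusive = mean inhibition reaches that limit but some replicates miss it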;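 also: 0% = plate neutral control median and 100% = total signal loss; the record names both 10 and 1 µM as test concentration; the first replicate is given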
# FGF22 binding: binders of human FGF22 protein, primary screen, FGF22 synaptogenesis inhibitor project, biophysical, thermal shift, single point; calls only at 9.99 µM; hit rate 1.5% among 340,000; recombinant FGF22 thermal shift, SYPRO orange fluorescence; percent of sucrose octasulfate shift, DMSO zero;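 active = melting point raised past a set limit in the mean and every replicate; inconclusive = no clear call; three in four hits are not shown here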
# Target sequence (Q9HCT0 whole entry, looked up): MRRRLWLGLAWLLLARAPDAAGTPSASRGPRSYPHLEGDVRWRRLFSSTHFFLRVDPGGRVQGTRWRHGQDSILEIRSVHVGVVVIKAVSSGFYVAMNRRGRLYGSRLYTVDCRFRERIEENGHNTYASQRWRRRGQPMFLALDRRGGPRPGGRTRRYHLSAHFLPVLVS
# Ecoli rRNA inh OD600: also measured in Ecoli rRNA inh; calls as there; OD600 change, %; measured here: OD600 growth;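 optical density of the mix in the first replicate; 0 = DMSO median and -100 = no signal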
# Ecoli rRNA inh RFP: second read-out of Ecoli rRNA inh, no call of its own (marks repeat the call); RFP signal change, %; measured here: RFP humanized mutant strains;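 first replicate; 0 = DMSO median and -100 = no signal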
# Numbers without * were called inactive; i = inactive; ? = inconclusive; . = not tested or not shown; & = joins results of further samples. This is a subset; the hit share may differ from the screen's.
SMILES,Ecoli growth,HNF4A DNA FP,Ecoli rRNA inh,Ecoli rRNA inh OD600,Ecoli rRNA inh RFP,Vif A3G,ALR H2O2 inh,MLL AF4-AF9 inh,FGF22 binding
CC(C(=O)Nc1cccnc1)N1C(=O)c2ccccc2C1=O (centres undefined),0.7,0.6,.,.,.,0%,-1,.,.
COc1ccc(NC(=O)Nc2ccc3c(c2)[C@@H]2C[C@H](CC(=O)NC4CCCC4)O[C@@H](CO)[C@@H]2O3)cc1,.,.,4,3,1.1,.,.,1.0,i
O=C(Cc1ccccn1)N1CC(=O)N2[C@@H](CO)[C@H](c3ccc(C#CCC4CCCC4)cc3)[C@@H]2C1,.,.,5,-12,0.8,.,.,4.9,i
CC(C)C(NS(=O)(=O)c1cccs1)C(=O)NCCN1CCN(c2ccccc2)CC1 (centres undefined),0.77,1.4,.,.,.,-1%,99*,.,.
Cc1cc(C)cc(C(=O)NCC(=O)OCc2nc(N)nc(Nc3ccccc3C)n2)c1,0.67,2.5,2,-11,4.3,-6%,0,3.4,i
Cc1cccc(-n2nc3c(c2NC(=O)C(C)C)CS(=O)(=O)C3)c1C,0.63,1.1,23,11,4.2,-2%,3,-1.8,i
COc1ccc(C(CNS(=O)(=O)c2ccc(NC(C)=O)c(OC)c2)N2CCCCC2)cc1 (centres undefined),0.67,1.7,2,4,0.2,-9%,0,-2.4,i
CC1CCCCC1NS(=O)(=O)c1ccc(-n2cnnn2)cc1 (centres undefined),0.74,3.6,.,.,.,1%,0,.,.
CCC(C)C(CO)NCCCn1ccc(NC(=O)OCc2ccccc2)nc1=O (centres undefined),.,-1.1,3,5,0.1,.,.,-0.7,i
Cc1cc(C(=O)Nc2cccc(/C=C/C(=O)O)c2)c(C)o1,0.64,1.6,.,.,.,25%,12,.,.
C[C@H]1CN([C@@H](C)CO)C(=O)c2cc(NS(=O)(=O)c3ccc(F)cc3)ccc2O[C@H]1CN(C)Cc1ccc(C(=O)O)cc1,.,.,4,7,-0.6,.,.,-0.9,i
CCOC(=O)C(CC)Sc1nc2c(cnn2-c2ccc(F)cc2)c(=O)[nH]1 (centres undefined),0.64,-0.8,6,8,-1.7,1%,-10,-6.9,i
CC(=O)N1CCSc2ccc(S(=O)(=O)NCc3ccc(F)cc3)cc21,0.69,-3.7,-2,-10,-0.3,.,-4,1.6,i
COCCNC(=O)C1(C)CCCN(C(=O)c2cccc(Cl)c2)C1 (centres undefined),.,0.4,1,4,-0.5,.,.,0.0,i
CCCn1c(SCC(=O)NC2CCCCC2)nnc1C1CC1,0.71,-0.8,2,8,0.5,.,1,-2.7,i
O=C(CCS(=O)CCC(=O)NCc1ccccc1)NCc1ccccc1,0.72,0.5,.,.,.,-3%,0,.,.
CCOC1=C2[C@@H](CN(S(=O)(=O)c3ccc(C)cc3)[C@H]2c2ccccc2)[C@H]2C(=O)N(c3ccccc3)C(=O)[C@H]2C1,.,1.4,.,.,.,.,.,-1.1,i
Cc1ccsc1/C=N/NC(=O)C(O)c1ccccc1 (centres undefined),.,0.7,5,6,-4.1,.,-6,-2.1,i
N#CC1(CCCN2CCCCC2)c2ccccc2CCc2ccccc21,0.62,-3.5,-11,-15,2.0,.,21,6.0,i
CO[C@@H](CN(C)Cc1nccs1)[C@H](C)CN([C@H](C)CO)S(=O)(=O)c1ccc(C)cc1,.,.,-2,-5,-3.9,.,.,0.5,i
C[C@H](CO)N1C[C@H](C)[C@@H](CN(C)C(=O)C2CC2)Oc2cc(C#CC3CCCC3)ccc2S1(=O)=O,.,.,-5,-22,5.6,.,.,-11,i
CCS(=O)(=O)N1CC(=O)N2[C@H](CO)[C@@H](c3ccc(C#CCC(C)C)cc3)[C@H]2C1,.,.,5,-1,2.4,.,.,5.4,i
CNC[C@@H]1OCCCC[C@H](C)Oc2ccc(NC(=O)CCC(F)(F)F)cc2C(=O)N([C@@H](C)CO)C[C@H]1C,.,.,8,7,0.7,.,.,-9.9,i
CC(O)CNc1nc2c(c(=O)n(C)c(=O)n2C)n1Cc1cccc(Br)c1 (centres undefined),0.65,-6.6,2,0,-2.5,20%,27,3.2,i
CC(=O)Nc1c(O)n(C)c2ccccc12,0.65,-0.7,.,.,.,0%,-2,.,.
C[C@@H]1CN([C@H](C)CO)C(=O)c2cc(NS(=O)(=O)c3ccc(F)cc3)ccc2O[C@H]1CN(C)CC1CC1,.,.,3,8,-1.6,.,.,0.2,i
CO[C@H]1CN(C)C(=O)c2ccc(NC(=O)Nc3ccc4c(c3)OCO4)cc2OC[C@@H](C)NC[C@@H]1C,.,.,5,7,1.0,.,.,-6.1,i
CC1(C)CC(C)(c2ccc(O)cc2O)N(c2cccc(Cl)c2)C(=S)N1 (centres undefined),0.75,-1.3,.,.,.,4%,71,.,.
CCC(COC(=O)Nc1ccccc1)NC(=O)OC(C)C (centres undefined),0.7,-2.1,5,9,1.6,2%,2,-0.3,i
CCC1CCCCN1S(=O)(=O)c1ccc(NC(=O)c2ccncc2)cc1 (centres undefined),0.7,1.7,-5,-2,0.3,.,-18,1.7,i

# The closing five records of the part before open the next one.
SMILES,Ecoli growth,HNF4A DNA FP,Ecoli rRNA inh,Ecoli rRNA inh OD600,Ecoli rRNA inh RFP,Vif A3G,ALR H2O2 inh,MLL AF4-AF9 inh,FGF22 binding
C[C@@H]1CN([C@H](C)CO)C(=O)c2cc(NS(=O)(=O)c3ccc(F)cc3)ccc2O[C@H]1CN(C)CC1CC1,.,.,3,8,-1.6,.,.,0.2,i
CO[C@H]1CN(C)C(=O)c2ccc(NC(=O)Nc3ccc4c(c3)OCO4)cc2OC[C@@H](C)NC[C@@H]1C,.,.,5,7,1.0,.,.,-6.1,i
CC1(C)CC(C)(c2ccc(O)cc2O)N(c2cccc(Cl)c2)C(=S)N1 (centres undefined),0.75,-1.3,.,.,.,4%,71,.,.
CCC(COC(=O)Nc1ccccc1)NC(=O)OC(C)C (centres undefined),0.7,-2.1,5,9,1.6,2%,2,-0.3,i
CCC1CCCCN1S(=O)(=O)c1ccc(NC(=O)c2ccncc2)cc1 (centres undefined),0.7,1.7,-5,-2,0.3,.,-18,1.7,i
COc1ccc(OC)c(S(=O)(=O)N2C(C)CCCC2C)c1 (centres undefined),0.72,1.4,.,.,.,?,-5,.,.
CC1(c2ccc(Cl)cc2)NC(=O)N(CC(=O)Nc2ccc(F)cc2)C1=O (centres undefined),0.67,-1.3,0,-8,1.9,4%,-3,-10,i
Cc1ccc(CSc2nncn2-c2ccccn2)cc1,0.75,-5.6,.,.,.,29%,-6,.,.
CCc1ccc(NC(=O)c2cc3c(C)nc4ccccc4c3o2)cc1,0.68,5.1,-27,-46,25,16%,-6,0.8,i
CCCCCCCCN1C(=O)[C@@H](CC(=O)N2CCOCC2)C[C@@]2(C(=O)OC)C1=C[C@H](C(C)(C)C)O[C@@H]2C,.,.,15,15,1.0,.,.,-1.9,i
Cc1cc(C)c2cccc(NC(=S)NC(=O)c3ccccc3)c2n1,0.68,4.9,.,.,.,4%,.,.,.
CCC(CO)NCCNC(CC)CO (centres undefined),0.72&0.71,-0.5,2,15,0.3,?,.,-6.5,i
COc1ccc(-c2sc(C(=O)c3ccc(Cl)cc3Cl)cc2CC(=O)O)cc1,0.67,2.6,-51,-67,-15,-26%,6,-6.6,i
COc1ccc2c(C#N)c3ccccn3c2c1,0.64,-6.3,3,-5,-1.4,9%,25,-4.2,i
O=C(O)C(c1ccccc1)N1C(=O)/C(=C\c2ccc(O)c(O)c2)SC1=S (centres undefined),0.64,-2.9,-14,-2,27,.,99*,5.0,.
O=c1ccc(Br)c[nH]1,0.69,1.5,.,.,.,-1%,-78,.,.
COc1ccc(NC(C)=O)cc1S(=O)(=O)N1CCN(C/C=C/c2ccccc2)CC1,0.7,3.2,3,0,5.4,-4%,-8,0.4,i
Cn1nccc1C(=O)NCCN1C(=O)OC(C)(C)C1(C)O (centres undefined),0.69,1.4,.,.,.,0%,.,.,.
CC(=O)NC1CCC(C(=O)O)(c2ccccc2)C1 (centres undefined),0.78,-1.3,.,.,.,0%,2,.,.
CCOC(=O)[C@@H]1[C@H]2COc3ccccc3[C@@H]2N2C(=O)N(c3ccc(C)cc3)C(=O)[C@]12C,0.8,-0.3,.,.,.,.,-7,.,.
CCCCN1CC(=O)N2[C@H]3c4cc(Cl)ccc4OC[C@@H]3[C@H](C(=O)OCC)[C@]2(C)C1=O,.,2.8,-4,-5,6.6,.,-6,-7.3,i
O=C(c1cccnc1)N1C[C@H]2[C@@H](c3ccccc31)[C@H](CO)N2C(=O)CN1CCOCC1,.,.,3,5,-3.2,.,.,-2.2,i
Cc1noc(C)c1S(=O)(=O)Nc1cccc2c1O[C@@H](CN(C)Cc1ccc(Oc3ccccc3)cc1)[C@@H](C)CN([C@@H](C)CO)C2=O,.,.,1,-7,1.2,.,.,5.2,i
O=C(CCN1CCCCC1)N[C@H]1CC[C@H](CCn2cc(-c3ccc(F)cc3)nn2)O[C@@H]1CO,.,.,3,-3,0.0,.,.,2.5,i
CCCCn1c(N)c(N(CCC(C)C)C(=O)c2ccccc2-n2cnnn2)c(=O)[nH]c1=O,0.67,-2.2,9,11,-2.0,-4%,.,-1.8,i
O=C(CN1C(=O)NC2(CCCCCC2)C1=O)c1cccs1,0.7,2.1,10,3,-1.0,2%,0,0.0,i
COc1ccc(S(=O)(=O)N(C)C[C@H]2Oc3c(NS(=O)(=O)c4cn(C)cn4)cccc3C(=O)N([C@H](C)CO)C[C@H]2C)cc1,.,.,4,7,-1.7,.,.,-0.8,i
Cc1ccc2cc(CN(Cc3ccco3)C(=O)c3ccco3)c3nnnn3c2c1,.,5.2,-20,-18,-1.5,.,3,2.9,i
CCN1C(=O)c2cccc3c(NC(=O)c4ccc(S(=O)(=O)N(C)C)cc4)ccc1c23,0.74,2.4,.,.,.,0%&-6%,-6,.,.
Cc1nn2cnc3sc4c(c3c2nc1=O)CCCC4,0.7,-1.6,.,.,.,16%,-6,.,.
CCOC(=O)Cn1ccc2cc(S(=O)(=O)N3CCCC3)ccc21,.,3.2,0,2,-0.9,3%,.,-7.2,i
CCCCCCCCN1C(=O)[C@H](CC(=O)NCCC(C)C)C[C@@]2(C(=O)OCC)CCCC=C12,.,0.3,18,20,-0.4,.,.,1.3,i
O=C(CS(=O)c1ccc(F)cc1)N1CCOCC1 (centres undefined),0.68,4.2,6,-5,0.1,3%,4,-2.1,i
O=C(C[C@H]1C=C[C@H](NC(=O)c2cccc(F)c2)[C@@H](CO)O1)NCc1ccc(Oc2ccccc2)cc1,.,.,-2,-5,-3.8,.,.,-11,i
CC1SC2(NC1=O)C1CC3CC(C1)CC2C3 (centres undefined),0.66,-0.8,13,17,5.1,28%,-1,-1.0,i
CC(=O)c1c(C)nc2cc(Cl)ccc2c1N,0.66,-1.1,.,.,.,-4%,-8,.,.
